# Screening results from PubChem.
# MT1-MMP promoter: MT1-MMP gene expression reporter suppression – cell-based, luciferase reporter, luminescence (AID 618); hit rate 0.62% among 87,000; MT1-MMP promoter luciferase reporter cells, luminescence; calls from a first round at 10 µM; hits with a dose series show EC50 in µM;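 active = over half of the reporter light lost at 10 µM or EC50 under 50 µM; inactive = the rest and hits that failed the dose series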;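 note: actives suppress MT1-MMP promoter-driven transcription so potencies describe inhibitors; HT1080 fibrosarcoma cells; overnight exposure; toxic or luciferase-blocking compounds were not removed from the actives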
# Active calls of the source: *; i = inactive; + = active, no number. This is a subset. The share of hits here may be higher or lower than overall.
SMILES | MT1-MMP promoter
COC(=O)[C@@]1(Cc2ccc(OC)cc2)[C@H]2c3cc(C(=O)N4CCCC4)n(CCc4ccc(OC)c(Br)c4)c3C[C@H]2CN1C(=O)c1ccccc1 | i
CCCOC(=O)c1[nH]c2c(c1C)C(=O)CC(c1cccs1)C2 (configuration not stated) | +
CN1C(=O)CSC1=NCC12CC3CC(CC(C3)C1)C2 | i
Cc1ccc(CNC(=O)c2csc3c2CCCCC3)cc1 | i
CC1CCN(C(=O)CN(c2ccc(Oc3ccccc3)cc2)S(C)(=O)=O)CC1 | i
CC1=C(C(=O)OC(C)C)C(c2ccc(Br)s2)NC(=O)N1 (configuration not stated) | i
Cc1cc(Nc2ccccc2)nc(N2CCOCC2)n1 | i
Cc1cccc(OCCCC(=O)N2CCCc3ccccc32)c1C | i
CCCCN1C(=O)C(O)=C(C(C)=O)C1c1ccccc1 (configuration not stated) | i
CSCC(=O)NS(=O)(=O)c1ccc(C)cc1 | i
CCOc1ccc(NC(=O)Cn2nnc(C(=O)NCCc3ccc(OC)c(OC)c3)c2N)cc1 | i
NC(=O)C(c1ccc(Cl)cc1)c1ccc(Sc2ccc(Cl)cc2)nn1 (configuration not stated) | i
CCn1c(CC(=O)Nc2ccc(C)cc2)nnc1SCC(=O)NCCc1ccccc1 | i
COC(=O)c1ccc(C(NC(=O)OCc2ccccc2)/C(F)=C/[C@@H](C)C(=O)NCc2cc(C)on2)cc1 (some centres not stated) | i
O=C(CSC1=NC(=O)C(c2ccccc2)C(=O)N1)Nc1ccccc1Cl (configuration not stated) | i
CC(Oc1ccc(Cl)cc1Cl)c1nc(-c2ccc(NC(=O)c3ccco3)cc2)no1 (configuration not stated) | i
COC(=O)c1ccc(Cn2nc(C)c(Cl)c2C)o1 | i
O=C(Nc1ccc(Oc2cccc3ccccc23)cc1)c1ccco1 | i
O=C(Nc1nccs1)C1CC(=O)N(c2ccccc2Cl)C1 (configuration not stated) | i
O=C(NCC1CCCO1)c1ccc2c(=O)n(CC3CCCO3)c(=S)[nH]c2c1 (configuration not stated) | i
C#CCOC(=O)c1ccc(-n2cncn2)nc1 | i
CCOc1cc(C)c(S(=O)(=O)Nc2ccc(F)cc2)cc1C | i
CCOc1ccccc1NC(=O)C(CC(C)C)NC(=O)C1CCC(C)CC1 (configuration not stated) | i
COC(=O)[C@@]1(Cc2ccccc2)[C@@H]2[C@@H](CC(=O)[C@H]2CC(=O)C(=O)N(C)C)CN1C(=O)c1ccccc1 | i
COC(=O)[C@@]1(C)C=C[C@@H](Cc2ccccc2)N1C(=O)c1ccccc1 | i
Cc1nc2nc(C)c(CCC(=O)N3CCN(c4ccccc4)CC3)c(C)n2n1 | i
CCC1=C(OC(=O)N(CC)CC)N2C(=O)OC(=NCC3CC3)[C@]2(C)[C@H]2C1=CC[C@H]1C(=O)N(c3ccccc3)C(=O)[C@H]12 | i
COc1ccc(CCNC(=S)Nc2cccc(C)c2)cc1 | i
Cc1ccc(Cn2ccc(NC(=O)c3noc4c3CCc3ccccc3-4)n2)cc1 | i
COC(=O)[C@@H]1C[C@]2(OC(=O)c3ccccc3)C=CC(=O)C[C@@H]2N1C(=O)OCc1ccccc1 | i
CCOC(=O)N/N=C(/C)c1ccc([N+](=O)[O-])o1 | i
CCC1=C(OC(=O)N(CC)CC)N2C(=O)OC(=NCC3CC3)[C@]2(Cc2ccccc2)[C@H]2C1=CC[C@H]1C(=O)N(c3ccccc3)C(=O)[C@H]12 | i
CC(=O)N1[C@H](Cc2ccccc2)C=C[C@]1(C)C(=O)NCCN1CCOCC1 | i
CCc1c2c(nc3ccc(OC)cc13)OC(C)C2 (configuration not stated) | i
CN(CC(O)CN)CC(O)CN1CCCCC1 (configuration not stated) | i
CCc1c(C(=O)Nc2ccccc2)c(C)[nH]c(=S)c1C#N | i
CS(=O)(=O)N(CC(=O)NC1CCCCCC1)Cc1ccc(Cl)cc1 | i
COc1ccc(-n2nc(C(=O)NCC(=O)N3CCN(C)CC3)c3ccccc3c2=O)cc1OC | i
COC(=O)[C@@]1(Cc2ccc(OC)cc2)[C@H]2c3cc(C(=O)N(C)C)n(CCN4CCNC4=O)c3C[C@H]2CN1C(=O)c1ccccc1 | i
COCCCNC(=O)c1ccc2c(=O)n(CC3CCCO3)c(=S)[nH]c2c1 (configuration not stated) | i
CN1CCN(C2CC(=O)N(c3ccc4c(c3)OCCO4)C2=O)CC1 (configuration not stated) | i
CC(C)Cn1cc(C(=O)NCCCOC(C)C)c2c3ccccc3n(C)c2c1=O | i
CC(=O)NCCn1c(SCc2cc(F)ccc2F)nc2ccccc2c1=O | i
CC1=C(C(=O)OCc2ccccc2)C(c2ccccc2OS(=O)(=O)c2ccc(C)cc2)NC(=O)N1CCCC(=O)O (configuration not stated) | i
COc1ccccc1/C=N/n1c(C)nnc1-n1nc(C)cc1C | i
CC(=O)c1ccc(NC(=O)Nc2ccc(Cl)cc2)cc1 | i
COCCCNC(=O)Cc1ccccc1OC | i
CC(C)(C)CC(=O)NCc1ccc(F)cc1 | i
COC(=O)[C@H]1C[C@@H]1[C@H](NC(=O)c1cccnc1)c1ccccc1 | i
Cc1ccc(S(=O)(=O)Oc2ccc(C(c3c(C)[nH][nH]c3=O)c3c(C)[nH][nH]c3=O)cc2)cc1 | i

# Some of the entries so far, with each value named:
Compound: COC(=O)[C@@H]1C[C@]2(OC(=O)c3ccccc3)C=CC(=O)C[C@@H]2N1C(=O)OCc1ccccc1
  MT1-MMP promoter: i
Compound: CCOC(=O)N/N=C(/C)c1ccc([N+](=O)[O-])o1
  MT1-MMP promoter: i
Compound: CCC1=C(OC(=O)N(CC)CC)N2C(=O)OC(=NCC3CC3)[C@]2(Cc2ccccc2)[C@H]2C1=CC[C@H]1C(=O)N(c3ccccc3)C(=O)[C@H]12
  MT1-MMP promoter: i
Compound: CC(=O)N1[C@H](Cc2ccccc2)C=C[C@]1(C)C(=O)NCCN1CCOCC1
  MT1-MMP promoter: i

# More results.
SMILES | MT1-MMP promoter
CCc1cccc2c(-c3ccccc3)c3c(nc12)OCC3 | i
COC(=O)C(C)Sc1n[nH]c(=S)s1 (configuration not stated) | i
C#CC(C)OC(=O)C(C)NC(=O)c1ccccc1 (configuration not stated) | i
CCC/C=C(\CCC)C(NC(=O)Cc1ccccc1)c1ccc(C(=O)OC)cc1 (configuration not stated) | i
COC(=O)C1=C(CCc2ccccc2)NC(=O)NC1c1ccc(C#N)cc1 (configuration not stated) | i
COC(=O)C1(CC(C)C)C=C2C(=C(C(C)C)C(=O)C2C)CN1 (configuration not stated) | i
Cn1c(=O)c(C(=O)COC(=O)c2cc(C3CC3)nc3ccccc23)c(N)n(Cc2ccccc2)c1=O | i
O=C(CN1C(=O)c2ccccc2C1=O)Nc1sc2c(c1C(=O)NCc1ccco1)CCCC2 | i
CCOC(=O)CSc1nc2ccc(N)cc2s1 | i
Cc1ccc(C)c(Cn2c(=O)n(CCCC(=O)NCc3ccco3)c(=O)c3sccc32)c1 | i
C[C@@H](C(=O)N[C@@H](CO)Cc1ccccc1)[C@H]1C[C@]1(C)[C@H](NC(=O)OCc1ccccc1)c1ccccc1 | i
CCN=C1SC(CC(=O)NCCc2ccc(OC)c(OC)c2)C(=O)N1CC (configuration not stated) | i
CCC(C)c1ccc(NC(=S)NCc2cccs2)cc1 (configuration not stated) | i
Cc1cc(CNC(=O)[C@H](C)[C@@H]2C[C@@]2(C)[C@@H](NC(=O)OCc2ccccc2)c2ccccc2)nn1C | i
CCOc1ccc(-c2cc(C)n3nc(C(N)=O)cc3n2)cc1 | i
CC1=C(C(=O)OCc2ccccc2)C(c2ccccc2-c2ccccc2)NC(=O)N1CCCCCC(=O)O (configuration not stated) | i
CCCCCNC(=O)c1ccccc1SC | i
COc1ccc(OC)c(NC(=O)Cn2c(=O)n(CC(=O)NCc3ccco3)c(=O)c3ccccc32)c1 | i
COC(=O)[C@H](Cc1ccccc1)NC(=O)[C@@]1(C)C[C@@H]1[C@@H](NC(=O)OCc1ccccc1)c1ccccc1 | i
CCC1=C2CC[C@H]3C(=O)N(C)C(=O)[C@H]3[C@H]2[C@@]2(Cc3ccccc3)C(=NCC(=O)OC)OC(=O)N2C1=O | i
COC(=O)CN1C(=O)Nc2ccc(Br)cc2C1c1ccccc1Cl (configuration not stated) | i
CCCCc1nnc(NC(=O)C(C)Sc2nc(C)cc(=O)[nH]2)s1 (configuration not stated) | i
Cc1cc(C)c(Cn2c(=O)n(CCCC(=O)NCc3ccco3)c(=O)c3sccc32)c(C)c1 | i
Cc1ccc(Cl)c(OCC(=O)NCc2ccco2)c1 | i
CCc1c(C(=O)Nc2cc(C)cc(C)c2)[nH]c(C)c1C(C)=O | i
CC(C)NC(=O)c1ccc2c(=O)n(Cc3ccco3)c(=S)[nH]c2c1 | i
CCOc1ccc(C(=O)NCCc2ccccc2)cc1 | 2.56µM*
COc1ccc(Cl)cc1NC(=O)Nn1cnnc1 | i
COC(=O)[C@@]1(Cc2ccc(OC)cc2)[C@H]2c3cc(C(=O)N(C)C)n(Cc4c(CO)[nH]cc(C)c4=O)c3C[C@H]2CN1C(=O)c1ccccc1 | i
Cc1cc(Cl)ccc1NC(=O)CCCN1C(=O)CCC1=O | i
CCC1=C2CC[C@H]3C(=O)N(CC)C(=O)[C@H]3[C@H]2[C@@]2(Cc3ccccc3)C(=NCc3ccccc3)OC(=O)N2C1=O | i
CC(=O)N1[C@H](Cc2ccccc2)C=C[C@]1(C)C(=O)NCc1ccccn1 | i
CN(C(=O)CCN1C(=O)c2ccccc2C1=O)C1CCCCC1 | i
CC(C)(C)c1ccc(C(=O)NNC(=O)Cc2ccccc2)cc1 | i
COc1ccc(OC)c(/C(O)=C/C(=O)C(=O)Nc2ccccc2OC)c1 | i
COC(=O)[C@@]1(Cc2ccccc2)[C@H]2c3cc(C(=O)N4CCCC4)n(Cc4nc5ccccc5[nH]4)c3C[C@H]2CN1C(=O)c1ccccc1 | i
COC(=O)N1C2(C=CC1(C)C(=O)NCc1ccccn1)CCCCC2 (configuration not stated) | i
CC1CCC(C(=O)c2c(O)c3ccccc3oc2=O)CC1 (configuration not stated) | i
COc1ccc(N2CCN(C(=O)CN(c3ccccc3)S(=O)(=O)c3ccc(OC)cc3)CC2)cc1 | i
O=C1CCC([N+](=O)[O-])C(c2cccc(Cl)c2Cl)N1 (configuration not stated) | i
Cc1ccc(C)c(S(=O)(=O)NCc2ccc(C(=O)N3CCC(Cc4ccccc4)CC3)cc2)c1 | i
CC(=O)c1c(C)[nH]c(C(=O)N2CCN(c3cc(Cl)ccc3C)CC2)c1C | i
Clc1ccc(C2[C@H]3CN(Cc4cccnc4)[C@H](c4ccccc4)C34CC2(c2ccccc2)C4)cn1 (some centres not stated) | i
CC12CC(c3ccccc3O1)N(C(=O)c1ccc(Br)o1)C(=O)N2c1ccccc1 (configuration not stated) | i
CCOC(=O)c1cn2nc(-c3ccc(OC)cc3)cc2nc1C1CCN(C(=O)OC(C)(C)C)CC1 | i
Cc1cccc(N2C(=O)CSC2c2cccnc2)c1 (configuration not stated) | i
COc1ccc(NC(=O)C(C)N(c2ccc(C)cc2)S(C)(=O)=O)cc1 (configuration not stated) | i
CC(=O)Cc1nsc(Nc2ccccc2)n1 | i
COc1ccc(NC(=O)CCN2C(=O)c3ccccc3S2(=O)=O)cc1 | i
CCCOc1c(OC)cc(Cl)cc1C1NC(=O)NC(C)=C1C(=O)NCc1ccccc1 (configuration not stated) | i

# 2 compounds picked at random from the list so far, as already listed:
SMILES | MT1-MMP promoter
O=C(CSC1=NC(=O)C(c2ccccc2)C(=O)N1)Nc1ccccc1Cl (configuration not stated) | i
COc1ccc(NC(=O)C(C)N(c2ccc(C)cc2)S(C)(=O)=O)cc1 (configuration not stated) | i

# Going on with the list:
SMILES | MT1-MMP promoter
COc1ccc(CNc2nc(NCc3ccc(OC)cc3)n(C(C)=O)n2)cc1 | i
COCC1C2CC[C@H]3C(OCc4ccc(F)cc4C(F)(F)F)OC[C@]4(C)[C@H]3C2=C(CN4C(=O)OC(C)(C)C)[C@H](C)C1COC (some centres not stated) | i
O=C(CSc1nc2c(sc3ccccc32)c(=O)n1CCc1ccccc1)NCc1ccco1 | i
COC(=O)c1ccc(C(NC(=O)OCc2ccccc2)/C(C)=C/[C@@H](C)C(=O)NC2CCCCC2)cc1 (some centres not stated) | i
CSc1ccccc1C(=O)NC1CCCCCC1 | i
COC(=O)CN=C1OC(=O)N2C(=O)C3=C4[C@@H](C[C@H]5C(=O)N(c6ccccc6)C(=O)[C@H]5[C@H]4[C@@]12Cc1ccccc1)[C@H]1C(=O)N(c2ccccc2)C(=O)[C@H]1[C@H]3C | i
CC(=O)N1CC=CC1(C)C(=O)NCc1cc(F)cc(C(F)(F)F)c1 (configuration not stated) | i
CCOc1ccc(N(C(C)C(=O)NC(C)CC)S(C)(=O)=O)cc1 (configuration not stated) | i
CN(C)CCOC(=O)C12CC3CC(CC(C3)C1)C2 | i
Cc1ccc(NC(=O)c2ccco2)c(NC(=O)Cc2cccs2)c1 | i
CCOC(=O)C1=C(C)N(CCCC(=O)O)C(=O)NC1c1ccc2c(c1)OCO2 (configuration not stated) | i
Cc1nnc2ccc(N3CCOCC3)nn12 | i
Cc1ccc(N/C=C/C(=O)c2ccc(C)cc2)cc1 | i
CC(C)CC1(C(=O)NCCN2CCOCC2)C=CCN1C(=O)c1ccccc1 (configuration not stated) | i
CCOC(=O)N1CCN(C(=O)c2cc(OC)cc(OC)c2)CC1 | i
FC(F)(F)c1ccc(CN2C[C@@H]3C(c4ccc(C(F)(F)F)cc4)C4(c5cccnc5)CC3(C4)[C@H]2c2ccccc2)cc1 (some centres not stated) | i
C=CCN1C(=O)C(CC(=O)Nc2ccccc2)SC1=Nc1c(C)n(C)n(-c2ccccc2)c1=O (configuration not stated) | i
